# Assay outcomes from PubChem.
# RecA intein inh = blocks M. tuberculosis RecA intein splicing; inhibition, %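 (about 9 µM by stock and volumes)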; 0.75% of 290,000 active; cell-free RecA intein splicing, fluorescence; in the data active = inhibition above about 30%; inconclusive = no clear call, values can overlap the other calls;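 note: 0% = vehicle wells and 100% = reference inhibitor control wells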
# Target sequence (P9WHJ3 whole entry, looked up): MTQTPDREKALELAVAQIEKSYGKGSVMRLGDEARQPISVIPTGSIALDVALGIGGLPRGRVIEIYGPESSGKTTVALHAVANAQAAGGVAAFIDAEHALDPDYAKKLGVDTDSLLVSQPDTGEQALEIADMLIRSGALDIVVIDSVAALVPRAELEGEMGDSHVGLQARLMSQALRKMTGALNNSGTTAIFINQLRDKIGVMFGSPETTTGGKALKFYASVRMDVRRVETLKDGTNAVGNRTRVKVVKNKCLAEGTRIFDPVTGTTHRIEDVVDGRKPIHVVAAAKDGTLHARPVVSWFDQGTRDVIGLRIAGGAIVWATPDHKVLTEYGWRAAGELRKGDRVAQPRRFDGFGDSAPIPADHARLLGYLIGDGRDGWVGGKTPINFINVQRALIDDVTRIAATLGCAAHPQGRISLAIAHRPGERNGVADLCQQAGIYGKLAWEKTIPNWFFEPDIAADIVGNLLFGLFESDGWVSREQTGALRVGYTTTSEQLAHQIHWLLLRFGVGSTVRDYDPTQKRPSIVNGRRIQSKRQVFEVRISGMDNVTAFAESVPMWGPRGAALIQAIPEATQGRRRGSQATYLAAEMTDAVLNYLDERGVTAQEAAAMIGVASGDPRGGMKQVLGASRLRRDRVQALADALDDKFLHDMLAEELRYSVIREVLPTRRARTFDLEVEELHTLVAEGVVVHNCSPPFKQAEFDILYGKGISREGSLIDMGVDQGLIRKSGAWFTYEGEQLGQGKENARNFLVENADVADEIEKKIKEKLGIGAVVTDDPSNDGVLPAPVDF
# YopH inh = blocks Yersinia enterocolitica YopH tyrosine phosphatase | fluorescence Ex485/Em525 | inhibition, %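 (about 10 µM by stock and volumes)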 | 0.16% of 140,000 active;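 active = inhibition of 50% or more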;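 note: controls were vehicle for no effect and minimum signal wells for full effect; inactives centre near -20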
# Mtb bLac sens = beta-lactam sensitization of Mtb H37Rv; M. tuberculosis H37Rv growth with meropenem, percent inhibition; hits of this screen are not shown here; inhibition, % at 25 µM; 0.27% of 330,000 active; AID 434955;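 active = about 74% or more and at least 40 points above the plate without the antibiotic, then above 30% in a dose series; inconclusive = first-round hits that could not be retested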;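 note: growth measured after seven days incubation then overnight dye step; 0% = bacteria only wells and 100% = bacteria with antibiotic; twin plates without the antibiotic show which effects depend on it; some results filed as inactive read as strong as hits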
# Arbovirus anti = antivirals against arbovirus infection; 0.37% of 200,000 active; AID 1251; arbovirus infection cell-based antiviral screen; inhibition, % at 10 µM;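 active = inhibition from about 30%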;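 note: bluetongue infection of BSR cells; cell survival read as ATP light after 72 h; 0% = infected wells without compound and 100% = uninfected wells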
# Mtb growth = M. tuberculosis H37Rv growth inhibitors, H37Rv strain (AID 1626) | 0.95% of 220,000 active | M. tuberculosis H37Rv growth inhibition; higher % means a stronger effect | one-dose inhibition, % at 10 µM; IC50 in µM for titrated hits;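 active = confirmed in a dose series; inconclusive = inhibition above 80% but not taken into the dose series; inactive = below 80% or under 30% at every dose of the series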;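 note: bacteria incubated seven days before Alamar blue readout; 0% = bacteria only wells and 100% = bacteria with antibiotic wells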
# Arbovirus anti repeat = second read-out of Arbovirus anti, no call of its own (marks repeat the call); inhibition, %; measured here: 10K subset replicate screen; many hits read low in the repeat;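 first of two repeat runs on a subset; 0% = infected and 100% = uninfected wells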
# Numbers without * were called inactive; ? = inconclusive; . = no result given. These rows are one share of the data; rates above refer to the full screens.
SMILES,RecA intein inh,YopH inh,Mtb bLac sens,Arbovirus anti,Mtb growth,others
COc1ccc(/C=C2\SC(=S)N(CC(=O)NNC(=O)c3ccncc3)C2=O)cc1,4.4,.,-5,2,-16%,
CC(=O)NCCC(=O)Nc1cc(S(=O)(=O)N2CCOCC2)ccc1Oc1ccc(F)cc1,-1.2,.,2,.,.,
Cc1ccnc(SCC(=O)N2CCc3ccccc3C2)n1,-2.2,.,-4,-7,6%,
CCn1c(=O)n(CC(=O)NCc2ccccc2OC)c(=O)c2ccccc21,0.7,-15,-6,2,4%,
COc1cc(CNc2ccc(NC(C)=O)cc2)ccc1OCc1ccccc1C,5.0,.,76,-4,14%,
CCN1CCc2c(sc(NC(=O)Cc3ccccc3)c2C(N)=O)C1,-6.2,.,9,.,.,
O=C(NC(=Nc1nc2ccccc2o1)NC(=O)c1ccccc1)c1ccccc1,-4.6,-4,-2,10,2%,
COc1ccccc1NC(=O)C1CCCN(S(=O)(=O)c2c(C)noc2C)C1 (centres undefined),-0.4,.,2,.,.,
COc1cccc(N(C(=O)C2COc3ccccc3O2)C(C(=O)NC2CCCCC2)c2ccc(O)cc2)c1 (centres undefined),2.9,-23,55,-6,7%,
CCc1ccc2nc(NC(=O)CSCc3c(C)noc3C)sc2c1,1.7,-1,0,4,-2%,
O=C(Nc1cccn(Cc2cccc(F)c2)c1=O)NC1CCCCC1,.,.,1,4,-1%,
C/C(=N\Nc1ccc([N+](=O)[O-])cc1)c1ccco1,-3.6,-18,42,-14,72%,
CN1CCN(NC(=O)c2cc(-c3ccc(Br)s3)nc3ccccc23)CC1,-6.4,.,4,.,.,
CC(=O)NNS(=O)(=O)c1ccc(-c2cc(C(F)(F)F)n(C)n2)s1,2.1,.,-6,.,-5%,
Nc1ccc(-c2nc3cc(N)ccc3s2)cc1,-17,.,-5,-23,-1%,
CCCn1nc(NC(=O)c2cccs2)c2cc3ccc(C)cc3nc21,.,.,0,.,-3%,
COc1cccc(/C=C2\SC(=O)N(CC(=O)NCCCn3ccnc3)C2=O)c1,-1.4,.,0,.,.,
COc1ccc(C(=O)NCc2nnc(SC)n2C2CCCCC2)cc1,2.1,-7,1,3,2%,Arbovirus anti repeat=5
O=C(c1ccc2c(c1)OCO2)N1CCC2(CC1)Oc1ccc(Cl)cc1C(=O)C21CC(c2cccnc2)=NO1 (centres undefined),3.7,.,98,.,32%,
O=C1/C(=N/n2cnnc2)c2ccccc2N1Cc1ccccc1,8.1,-29,25,-8,3%,
COc1ccc(-c2nn(-c3ccccc3)cc2/C=N/NC(=S)NC(C)C)cc1OC,3.8,-40,5,-7,14%,
COC(=O)c1ccc(OC(=O)C23CCC(C)(C(=O)O2)C3(C)C)cc1 (centres undefined),5.7,.,0,4,-2%,
CCN(C(=O)COC(=O)c1cc(-c2cccs2)nc2ccccc12)C1CCS(=O)(=O)C1 (centres undefined),-23,.,-4,5,-2%,
COc1ccc(NC(=O)C(C)NS(=O)(=O)c2ccc(NC(C)=O)cc2)cc1Cl (centres undefined),.,37,-3,-1,-6%,
Fc1ccc(N/N=C/c2cccnc2)c(F)c1,-1.9,.,97,-36,?,
O=C(N/N=C/c1ccc(OC(=O)c2ccccc2)cc1)c1cccnc1,23,.,-3,.,.,
CN(c1ccccc1)S(=O)(=O)c1ccc(C(=O)Nc2nnc(C3CC3)o2)cc1,.,.,89,-21,?,
COc1ccccc1NC(=O)CSc1c2c(nc3ccccc13)CCC2,21,-17,6,14,5%,
CCC1=NC(c2ccccc2OC)N(O)C1(C)C (centres undefined),-3.7,-20,-11,8,-4%,
O=C(O)CCNc1cc(N2CCN(C(=O)c3ccco3)CC2)c2noc3c2c1C(=O)c1ccccc1-3,21,.,16,.,.,

# Entries shown so far with fluorine:
SMILES,RecA intein inh,YopH inh,Mtb bLac sens,Arbovirus anti,Mtb growth,others
CC(=O)NCCC(=O)Nc1cc(S(=O)(=O)N2CCOCC2)ccc1Oc1ccc(F)cc1,-1.2,.,2,.,.,
O=C(Nc1cccn(Cc2cccc(F)c2)c1=O)NC1CCCCC1,.,.,1,4,-1%,
CC(=O)NNS(=O)(=O)c1ccc(-c2cc(C(F)(F)F)n(C)n2)s1,2.1,.,-6,.,-5%,
Fc1ccc(N/N=C/c2cccnc2)c(F)c1,-1.9,.,97,-36,?,

# Looked up by structure from the list above (5):
SMILES,RecA intein inh,YopH inh,Mtb bLac sens,Arbovirus anti,Mtb growth,others
COc1ccc(NC(=O)C(C)NS(=O)(=O)c2ccc(NC(C)=O)cc2)cc1Cl (centres undefined),.,37,-3,-1,-6%,
COc1ccc(C(=O)NCc2nnc(SC)n2C2CCCCC2)cc1,2.1,-7,1,3,2%,Arbovirus anti repeat=5
CCC1=NC(c2ccccc2OC)N(O)C1(C)C (centres undefined),-3.7,-20,-11,8,-4%,
O=C(c1ccc2c(c1)OCO2)N1CCC2(CC1)Oc1ccc(Cl)cc1C(=O)C21CC(c2cccnc2)=NO1 (centres undefined),3.7,.,98,.,32%,
O=C1/C(=N/n2cnnc2)c2ccccc2N1Cc1ccccc1,8.1,-29,25,-8,3%,

# (further entries)
SMILES,RecA intein inh,YopH inh,Mtb bLac sens,Arbovirus anti,Mtb growth,others
COCc1cc(C)nc2sc(C(=O)N3CCCC3)c(N)c12,-2.7,-14,-5,-7,-6%,
O=C(COC(=O)c1cc(S(=O)(=O)N2CCCC2)ccc1O)Nc1ccc(S(=O)(=O)N2CCOCC2)cc1,-0.6,.,-2,.,1%,
COc1ccccc1CNC(=O)CNC(=O)c1cn(-c2ccccc2OC)c(=O)c2ccccc12,1.0,.,-5,1,-6%,
O=C(Cc1ccc2c(c1)CCCC2)Nc1ccccc1Br,8.5,-19,4,7,12%,
CCCc1nc(SCC(=O)c2ccc(OC)cc2)c2ccccc2n1,11,.,58,8,9%,
O=C(CN1CCCc2ccccc21)NCc1ccccc1Cl,2.4,-9,8,6,6%,
CC(=O)Nc1ccc(S(=O)(=O)Nc2ccc(C)c([N+](=O)[O-])c2)cc1,1.9,.,5,8,15%,
O=C(OCN1C(=O)c2ccccc2C1=O)/C(=C\c1ccco1)NC(=O)c1ccccc1,3.4,-11,-6,8,1%,
O=C(c1ccco1)N1CCN(C(=O)c2cc3c(=O)oc4ccccc4c3s2)CC1,-0.1,-9,-1,5,-4%,
NN=C(c1ccccc1)c1ccccc1,-3.6,.,-10,.,.,
Cc1cc2c(c(SCC(=O)NCc3ccccc3Cl)n1)C(=O)OC2,-1.1,.,-7,13,-5%,
CN(CC1CCCN(CCc2cccc(C(F)(F)F)c2)C1)C(=O)c1ccc2nc[nH]c2c1 (centres undefined),4.2,.,-3,.,.,
CCCCc1nc2ccccc2c(NC(=O)CN(CC)CC)c1CCC,0.2,17,-9,12,12%,
CC12CCC(C(=O)Nc3ccc(SC(F)F)cc3)(CC1=O)C2(C)C (centres undefined),-1.1,-34,100,-6,54%,
O=C(COC(=O)C12CC3CC(CC(C3)C1)C2)Nc1ccc([N+](=O)[O-])cc1Br,-0.4,-27,3,-3,-2%,
COC(=O)C1=C(C)n2nnnc2NC1c1cc2ccccc2o1 (centres undefined),3.6,-37,-1,1,-1%,
Cn1c(=O)n(C)c2cc(S(=O)(=O)N3CCCc4ccccc43)ccc21,2.2,4,2,-20,-1%,
COc1cccc(NC(=O)CN(C)C(=O)c2ccc(OCc3ccccc3)c(OC)c2)c1,1.3,.,70,.,.,
COc1ccc(CCNCc2ccc(OCC(=O)N3CCCCC3)c(OC)c2)cc1OC,-1.9,.,-5,-1,-8%,
Fc1cccc2ncnc(OCc3ccccc3)c12,-0.2,.,-3,7,8%,
O=C(NCc1cccs1)[C@@H]1CSC2c3ccccc3C(=O)N21 (some centres undefined),-3.1,-34,-10,0,-6%,
O=C(COc1ccccc1)N1N=C(c2cccnc2)CC1(O)C(F)(F)F (centres undefined),-0.1,-33,-1,4,-14%,
CC1CCCC(C)N1C(=O)c1cc(-c2ccc(Cl)c(Cl)c2)on1 (centres undefined),-3.4,-33,95,-3,78%,
CNC(=S)NNC(=O)c1noc(C)c1C(=O)N1CCN(C(c2ccccc2)c2ccccc2)CC1,8.5,.,4,15,5%,
CC1(C)c2[nH]c3ccccc3c2C[C@H]2C(=O)N(Cc3ccc(F)cc3)C(=O)N21,6.4,.,77,.,0%,
Cc1ccc(S(=O)(=O)NCc2csc(C)n2)cc1,4.2,.,-4,.,.,
CCOc1ccc(C(=O)Nc2ccccc2C#N)cc1[N+](=O)[O-],0.4,-22,-4,-1,3%,
O=C(Nc1ccccc1C(=O)N1CCOCC1)c1ccc(Br)cc1,-0.5,.,-14,.,.,
COc1cc(/C=C/C(=O)OC(C)C(=O)Nc2c(C)n(C)n(-c3ccccc3)c2=O)ccc1OCC#N (centres undefined),7.7,.,0,4,1%,
CCOCCCNC(=O)C(c1ccccc1)N(Cc1ccc2c(c1)OCO2)C(=O)CNC(C)=O (centres undefined),2.3,11,-6,6,-8%,Arbovirus anti repeat=3

# Overlap with the part before: 2 compounds, followed by the next part.
SMILES,RecA intein inh,YopH inh,Mtb bLac sens,Arbovirus anti,Mtb growth,others
COc1cc(/C=C/C(=O)OC(C)C(=O)Nc2c(C)n(C)n(-c3ccccc3)c2=O)ccc1OCC#N (centres undefined),7.7,.,0,4,1%,
CCOCCCNC(=O)C(c1ccccc1)N(Cc1ccc2c(c1)OCO2)C(=O)CNC(C)=O (centres undefined),2.3,11,-6,6,-8%,Arbovirus anti repeat=3
CN(C)S(=O)(=O)Oc1ccc(Cl)cc1C(=O)Nc1ccc(F)cc1F,0.5,.,2,-2,6%,
CCc1ccccc1NC(=O)c1onc(C)c1Cl,-8.1,-46,-1,5,2%,Arbovirus anti repeat=0
CCN(CC)C(=O)Cn1ncc2c1-c1ccccc1OC2,-1.9,-5,-6,3,3%,Arbovirus anti repeat=0
O=C(CNC(=O)c1ccc(Cl)cc1)Nc1ccc(S(=O)(=O)Nc2ncccn2)cc1,18,.,-5,.,-6%,
COc1ccc(Cl)cc1NC(=O)C1CCCN(S(=O)(=O)c2cccc3nonc23)C1 (centres undefined),-3.1,-19,.,-9,-6%,
COc1ccc(C2/C(=C(/O)c3ccc(OC(C)C)cc3)C(=O)C(=O)N2CCCN2CCOCC2)cc1 (centres undefined),1.1,-28,-2,6,-2%,
Cc1ccc(F)cc1NC(=O)N1CCCN(C(=O)OC(C)(C)C)CC1,0.1,.,-1,.,3%,
CCN1CCN(Cc2c(C)[nH]c3ccc(C(=O)OC)cc3c2=O)CC1,-2.3,-1,-3,7,-7%,
Cc1ccc(NC(=O)Nc2ncccc2C)cc1,-0.6,-121,-4,1,-11%,
CSc1nc(=O)n(-c2ccccc2)c(C)c1C(C)=O,0.4,-20,-14,1,5%,
C[C@@H]1C=C(C(=O)NCc2nc3ccccc3[nH]2)O[C@H](OCc2ccc(CO)cc2)C1,0.9,.,-3,.,1%,
O=C(Cc1ccc(Cl)cc1)Oc1cccc2cccnc12,.,-8,100,6,?,
CN(C)c1ccc(/C=N\NC(=O)c2csnn2)cc1,0.3,-22,63,-1,-2%,
Cc1ccc(O)c(CO)n1,-0.9,.,-4,.,-13%,
CC1c2[nH]c3ccccc3c2C[C@H]2C(=O)N(CCCO)CC(=O)N12 (some centres undefined),0.9,.,-3,.,.,
Cc1cc(C)nc(SCC(=O)OCC(=O)N(C)c2c(N)n(Cc3ccccc3)c(=O)[nH]c2=O)n1,-1.1,.,?,.,.,
CCNC(=S)Nc1cc2oc3ccccc3c2cc1OC,-2.4,.,84,.,.,
CCC(C)NC(=O)CCC(=O)Nc1ccc2nc(N3CCOCC3)cc(C)c2c1 (centres undefined),-1.8,-38,-3,6,-9%,
O=C(CCCOc1ccc(Cl)cc1Cl)NCCCn1ccnc1,0.1,.,5,18,0%,
COC(=O)CCC(=O)OC1(C)C(=O)C=C2C=C(C3CC3)N(CCN3CCOCC3)C=C2C1=O (centres undefined),6.8,.,7,.,-12%,
O=C(CSc1ncccn1)NCCc1ccccc1,-0.4,-22,-3,1,2%,Arbovirus anti repeat=-1
CC(=O)Nc1c2c(nn1-c1cccc(Cl)c1)CS(=O)(=O)C2,1.4,.,6,.,.,
Cn1c(NCCc2ccccc2)cc(=O)n(C)c1=O,3.0,-29,-1,2,0%,
Cn1nc(C(C)(C)C)c(NC(=O)c2sccc2Cl)c1C(C)(C)C,1.0,.,-1,.,-11%,
COc1cc(C(=O)Nc2ccccc2N2CCOCC2)ccc1OCc1c(C)noc1C,1.4,-33,0,-3,7%,
CCCc1cc(N2CCCC(C(=O)Nc3ccc(OC)cc3OC)C2)n2ncnc2n1 (centres undefined),2.5,-44,-12,1,1%,
Cc1cc(=O)n(-c2ccc3ccccc3n2)[nH]1,14,-10,12,4,1%,
